DUX4 txn inh – inhibitors of DUX4-driven ZSCAN4 reporter expression, primary screen, 293T cells, Gaussia and Italica luciferase. 37,000 compounds, 0.8% hits. activity change, negative = inhibition, % (test concentration not listed). 293T-iDUX4 ZSCAN4-Gaussia luciferase reporter, 24 h; hits give low values;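 active means -10% or lower and over 25 points stronger than a control reporter; inconclusive means -10% or lower with a smaller gap; inactive means above -10%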;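 further: 0% = median of neutral control wells and -100% = median of positive control wells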
DUX4 txn inh difference – further read-out of DUX4 txn inh, marked with its call; Gaussia minus Italica difference, %; measured here: selective DUX4 reporter inhibition;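 worked out from the two reporters; negative = selective loss of the DUX4 reporter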
DUX4 txn inh control – further read-out of DUX4 txn inh, marked with its call; activity change, negative = inhibition, %; measured here: Italica tet-on control reporter;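 0 = neutral control and -100 = positive control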
* = called active by the depositor; ? = inconclusive; · = no result given. This is a subset. The share of hits here may be higher or lower than overall.

Start of the listing, in advance (two entries):
Each structure is followed by: DUX4 txn inh | DUX4 txn inh difference | DUX4 txn inh control
O=C(C1CCCCC1)N1[C@@H](CO)[C@@H]2c3ccccc3N(S(=O)(=O)c3ccccc3)C[C@@H]21
→ -0.8 | -0.4 | -0.4
CO[C@H]1CC[C@@H]2CCN(C)C(=O)[C@@H](C)[C@H](OC)CN(C)C(=O)c3cc(C#N)ccc3OC[C@H]1O2
→ 0.3 | 0.9 | -0.6

Main list, previewed entries included:
Each structure is followed by: DUX4 txn inh | DUX4 txn inh difference | DUX4 txn inh control
O=C(C1CCCCC1)N1[C@@H](CO)[C@@H]2c3ccccc3N(S(=O)(=O)c3ccccc3)C[C@@H]21
→ -0.8 | -0.4 | -0.4
CO[C@H]1CC[C@@H]2CCN(C)C(=O)[C@@H](C)[C@H](OC)CN(C)C(=O)c3cc(C#N)ccc3OC[C@H]1O2
→ 0.3 | 0.9 | -0.6
O=C(Nc1ccc(F)cc1)N1CCCCN2[C@H](CO)[C@@H](c3ccc(C#CC4CC4)cc3)[C@H]2C1
→ 2.7 | -16.4 | 19.1
C[C@@H](NC(=O)C[C@@H]1CC[C@@H]2[C@H](COC[C@@H](O)CN2Cc2ccc(C(F)(F)F)cc2)O1)c1ccccc1
→ 1.2 | -0.9 | 2.1
O=C(C[C@@H]1C=C[C@H](NC(=O)CCN2CCCCC2)[C@@H](CO)O1)Nc1nccs1
→ -6.0 | -9.6 | 3.6
Cc1noc(C)c1NC(=O)Nc1ccc2c(c1)C(=O)N([C@@H](C)CO)C[C@H](C)[C@H](CN(C)C(=O)Nc1cccc3ccccc13)O2
→ -0.5 | -1.0 | 0.5
O=C(C[C@H]1CC[C@@H]2[C@H](COC[C@H](O)CN2C(=O)c2ccccc2)O1)N1CCOCC1
→ 5.9 | 8.0 | -2.1
CN(C)c1ccc2c(c1)[C@@H]1C[C@@H](CC(=O)NCc3ccc4c(c3)OCO4)O[C@H](CO)[C@@H]1O2
→ 4.6 | 5.8 | -1.2
O=C(C[C@H]1CC[C@@H]2[C@H](COC[C@H](O)CN2S(=O)(=O)c2cccc(F)c2)O1)NC1CCC1
→ 6.2 | 2.0 | 4.3
C[C@@H]1CN([C@@H](C)CO)C(=O)c2c(c3ccccc3n2C)-c2ccccc2CO[C@H]1CN(C)C(=O)Nc1cccc(Cl)c1Cl
→ ? | · | ·
CCCC(=O)Nc1ccc2c(c1)OC[C@@H](C)N(CCc1ccccc1)C[C@H](C)[C@H](OC)CN(C)C2=O
→ -0.7 | 0.1 | -0.8
CN(C)C(=O)c1cccc(-c2ccc3c(c2)[C@H]2[C@H](CCN2C(=O)c2ccc4c(c2)OCO4)[C@@H](CO)N3)c1
→ ? | · | ·
COc1ccc(OC(=O)N(C)C[C@H]2OCc3ccccc3-c3ccccc3C(=O)N([C@@H](C)CO)C[C@H]2C)cc1
→ 10.3 | 5.2 | 5.1
O=C(C[C@@H]1CC[C@@H]2[C@H](COC[C@@H](O)CN2C(=O)c2cccnc2)O1)NCc1ccc(Cl)cc1
→ 9.4 | 5.4 | 4.0
COc1ccc2c3c(n(C)c2c1)[C@H](CO)N(Cc1cc(F)ccc1F)CC31CCN(C(=O)C2CC2)CC1
→ -8.2 | -4.3 | -3.9
Cc1noc(C)c1NC(=O)N(C)C[C@@H]1Oc2c(NS(=O)(=O)c3ccc(Cl)cc3)cccc2C(=O)N([C@H](C)CO)C[C@H]1C
→ -8.3 | -8.1 | -0.2
CCC(=O)N1C[C@@H](C)[C@@H](OC)CN(C)C(=O)c2ccc(NC(=O)CC(F)(F)F)cc2OC[C@@H]1C
→ 10.6 | 4.1 | 6.5
C[C@@H]1CN([C@H](C)CO)C(=O)CCCn2nncc2CO[C@H]1CN(C)S(=O)(=O)c1ccc(-n2cccn2)cc1
→ -5.1 | -7.6 | 2.6
COc1cccc(CN2CC3(CN(C)C3)c3c(n(C)c4cc(OC)ccc34)[C@@H]2CO)c1
→ -3.2 | 0.1 | -3.3
O=C(Nc1ccc2c(c1)[C@@H]1C[C@@H](CC(=O)N3CCc4ccccc4C3)O[C@H](CO)[C@@H]1O2)C1CCOCC1
→ -1.8 | -4.2 | 2.4
C[C@H](NC(=O)[C@@H]1[C@@H](CO)[C@@H]2Cn3c(ccc(-c4ccncc4)c3=O)[C@@H]2N1C)c1ccccc1
→ 2.6 | 3.8 | -1.2
Cn1cnc(S(=O)(=O)N2CC[C@@H]3[C@@H](CO)Nc4ccc(-c5ccc(F)cc5)cc4[C@@H]32)c1
→ 21.7 | 22.0 | -0.3
COCC(=O)N(C[C@H]1N[C@@H](CO)[C@@H]1c1ccc(-c2cccnc2)cc1)C(C)C
→ 4.6 | 0.4 | 4.2
O=C(C[C@@H]1C[C@@H]2c3cc(NC(=O)C4CCC4)ccc3O[C@@H]2[C@H](CO)O1)NCc1ccc(Cl)cc1
→ 6.1 | 5.1 | 1.0
O=C(NCC[C@@H]1CC[C@H](NC(=O)C2CCOCC2)[C@H](CO)O1)c1cc(Cl)cc(Cl)c1
→ -3.9 | 3.3 | -7.2
COc1ccccc1NC(=O)N1CC(=O)N2[C@H](C1)[C@H](c1ccc(C#CC(C)C)cc1)[C@@H]2CO
→ 0.1 | 9.3 | -9.2
CC(C)CC#Cc1ccc([C@H]2[C@H]3CN(C(=O)NC4CCCC4)CCCCN3[C@H]2CO)cc1
→ 9.4 | -2.5 | 11.8
CN(C[C@H]1[C@@H](c2ccccc2)[C@@H](CO)N1Cc1ccccn1)S(C)(=O)=O
→ -4.9 | -2.2 | -2.7
COCC(=O)Nc1ccc2c(c1)C(=O)N(C)[C@@H]1CC[C@@H](CC(=O)NC3Cc4ccccc4C3)O[C@@H]1CO2
→ 2.6 | 0.3 | 2.2
CC(=O)NC[C@@H]1[C@H](c2ccc(-c3ccccc3)cc2)[C@H](CO)N1C(=O)C1CCC1
→ -0.1 | -3.3 | 3.1
COc1ccc(NC(=O)Nc2ccc3c(c2)C(=O)N([C@H](C)CO)C[C@@H](C)[C@@H](CN(C)Cc2ccncc2)OCCCC[C@@H](C)O3)cc1
→ -2.4 | 1.0 | -3.3
C[C@H]1CN([C@@H](C)CO)C(=O)c2cc(Br)cnc2O[C@@H]1CN(C)C(=O)C1CCCCC1
→ -0.1 | 0.2 | -0.3
C[C@@H]1CN([C@@H](C)CO)C(=O)c2c(c3ccccc3n2C)-c2ccccc2CO[C@H]1CN(C)S(C)(=O)=O
→ 13.3 | 15.6 | -2.3
N#C[C@@H]1[C@@H](c2ccc(C#Cc3ccc(F)cc3)cc2)[C@H](CO)N1C(=O)C1CCC1
→ -1.1 | 2.0 | -3.1
CCS(=O)(=O)N1CC2(CN(Cc3cccc(Cl)c3)[C@H](CO)c3c2c2ccc(OC)cc2n3C)C1
→ ? | · | ·
COc1ccc(NC(=O)N[C@@H]2CC[C@H](CC(=O)NC3CCCCC3)O[C@H]2CO)cc1
→ 1.8 | 2.2 | -0.3
O=C(Nc1ccccc1)N1C[C@@H]2[C@H](c3ccccc31)[C@H](CO)N2C(=O)c1ccncc1
→ -3.7 | -3.4 | -0.4
CCCN(C)C[C@@H]1OCc2cn(nn2)CCCC(=O)N([C@@H](C)CO)C[C@@H]1C
→ -2.4 | -0.6 | -1.8
COc1cccc(-c2ccc3c(c2)O[C@H](CN(C)C(=O)c2ccccc2F)[C@H](C)CN([C@H](C)CO)S3(=O)=O)c1
→ -0.3 | -3.4 | 3.1
CN(C[C@H]1N[C@@H](CO)[C@H]1c1ccc(-c2cccc(F)c2)cc1)S(C)(=O)=O
→ 3.5 | 4.5 | -1.0

A draw from above in order of SMILES length, smallest number first:
Each structure is followed by: DUX4 txn inh | DUX4 txn inh difference | DUX4 txn inh control
CCCN(C)C[C@@H]1OCc2cn(nn2)CCCC(=O)N([C@@H](C)CO)C[C@@H]1C
→ -2.4 | -0.6 | -1.8
CN(C[C@H]1N[C@@H](CO)[C@H]1c1ccc(-c2cccc(F)c2)cc1)S(C)(=O)=O
→ 3.5 | 4.5 | -1.0
O=C(NCC[C@@H]1CC[C@H](NC(=O)C2CCOCC2)[C@H](CO)O1)c1cc(Cl)cc(Cl)c1
→ -3.9 | 3.3 | -7.2
C[C@H](NC(=O)[C@@H]1[C@@H](CO)[C@@H]2Cn3c(ccc(-c4ccncc4)c3=O)[C@@H]2N1C)c1ccccc1
→ 2.6 | 3.8 | -1.2

The results go on.
compound	DUX4 txn inh	DUX4 txn inh difference	DUX4 txn inh control
O=C(NCC[C@H]1CC[C@@H](NS(=O)(=O)c2ccc(Cl)cc2)[C@@H](CO)O1)Nc1ccc(F)cc1	?	·	·
CO[C@H]1CC[C@@H]2CCN(C)C(=O)[C@H](C)N(C)C(=O)c3cccc(C#N)c3OC[C@@H]1O2	-1.7	-1.9	0.2
O=C(c1ccccc1F)N1CC2(C1)[C@H](c1ccccc1)[C@@H](CO)N2CC1CC1	7.7	6.5	1.2
CCC(=O)N[C@@H]1CC[C@@H](CC(=O)NCc2ccccc2F)O[C@H]1CO	-2.1	-2.9	0.9
O=C(NCC1CC1)[C@H]1[C@H](CO)[C@H]2Cn3c(ccc(/C=C/c4ccccc4)c3=O)[C@@H]1N2C(=O)C1CC1	-4.4	-1.7	-2.6
Cc1ccc(S(=O)(=O)Nc2ccc3c(c2)C(=O)N([C@H](C)CO)C[C@@H](C)[C@@H](CN(C)C(=O)Nc2c(C)noc2C)O3)cc1	4.4	1.4	3.0
N#C[C@H]1[C@@H](c2ccccc2-c2ccccc2)[C@H](CO)N1C(=O)Cc1ccncc1	20.3	10.3	10.0
CN1C(=O)c2cc(NC(=O)c3ccccc3F)ccc2OC[C@H]2O[C@@H](CC(=O)NCc3ccc4c(c3)OCO4)CC[C@@H]21	-0.8	-2.4	1.6
CN(C)C(=O)c1cccc(-c2ccc3c(c2)[C@H]2[C@H](CCN2C(=O)Cc2ccccn2)[C@H](CO)N3C)c1	19.4	56.3	-36.9
O=C([C@H]1N[C@H]2c3ccc(/C=C/c4ccccc4)c(=O)n3C[C@H]2[C@@H]1CO)N1CCCCC1	2.3	2.8	-0.5
O=S(=O)(c1ccc(F)cc1)N1CC[C@@H]2[C@H](CO)Nc3ccc(-c4ccccc4F)cc3[C@@H]21	?	·	·
CCC(=O)Nc1ccc2c(c1)OC[C@H](C)N(Cc1ccccc1)C[C@@H](C)[C@@H](OC)CN(C)C2=O	?	·	·
O=C(C[C@@H]1CC[C@H]2[C@@H](COC[C@@H](O)CN2C(=O)c2ccc(F)cc2)O1)N1CCCCC1	-6.9	-4.9	-2.0
CCCNC(=O)N1[C@H](C#N)[C@H](c2ccccc2-c2ccc(F)cc2)[C@@H]1CO	-7.7	-0.1	-7.5
O=C(C[C@@H]1C=C[C@@H](NC(=O)c2cccnc2)[C@H](CO)O1)NCCN1CCCCC1	5.6	8.0	-2.3
C[C@H]1CN([C@@H](C)CO)C(=O)c2cc(N(C)C)ccc2O[C@H]1CN(C)S(=O)(=O)c1ccc(F)cc1	0.3	-1.3	1.6
C[C@H](CO)N1C[C@H](C)[C@@H](CN(C)Cc2ccccc2C(=O)O)OCc2cnnn2CCCC1=O	2.4	-1.2	3.6
O=C(C[C@H]1CC[C@H]2[C@@H](COC[C@@H](O)CN2C(=O)c2cccnc2)O1)NCc1ccc(Cl)cc1	8.7	1.3	7.4
C[C@@H]1CCCCO[C@@H](CN(C)S(=O)(=O)c2ccc(Cl)cc2)[C@H](C)CN([C@H](C)CO)C(=O)c2cc(NC(=O)CCCN(C)C)ccc2O1	1.8	1.3	0.5
O=S(=O)(c1cccs1)N1CCCCN2[C@H](CO)[C@@H](c3ccc(Br)cc3)[C@@H]2C1	?	·	·
C[C@@H]1CN([C@H](C)CO)C(=O)c2c(c3ccccc3n2C)-c2ccccc2CO[C@@H]1CN(C)C(=O)Nc1ccccc1C(F)(F)F	-1.1	15.0	-16.1
C[C@@H]1CCCCO[C@@H](CN(C)C(=O)NC2CCCCC2)[C@@H](C)CN([C@H](C)CO)C(=O)c2cc(NC(=O)CCC(F)(F)F)ccc2O1	4.5	1.2	3.3
CNC[C@H]1Oc2ncc(Br)cc2C(=O)N([C@@H](C)CO)C[C@@H]1C	-0.6	-0.9	0.3
CCN(C[C@@H]1[C@@H](c2ccccc2)[C@H](CO)N1CC1CC1)C(=O)c1ccccn1	0.8	0.1	0.6
COc1ccc(-c2ccc3c(c2)[C@H]2[C@H](CCN2C(=O)c2cnccn2)[C@H](CO)N3)cc1	-4.3	9.2	-13.5
COCC(=O)Nc1ccc2c(c1)C(=O)N(C)C[C@H](OC)[C@@H](C)CN(Cc1cncnc1)[C@H](C)CO2	6.4	2.6	3.8
O=C(C1CCOCC1)N1CC(=O)N2[C@H](CO)[C@@H](c3ccc(/C=C/c4ccccc4)cc3)[C@H]2C1	2.2	4.6	-2.5
COc1ccc(CN(C)C[C@H]2Oc3c(NC(=O)c4cnccn4)cccc3C(=O)N([C@@H](C)CO)C[C@@H]2C)cc1	0.1	2.6	-2.5
COc1ccc(S(=O)(=O)Nc2ccc3c(c2)C(=O)N([C@H](C)CO)C[C@@H](C)[C@@H](CN(C)Cc2ccc(C(F)(F)F)cc2)OCCCC[C@@H](C)O3)cc1	4.6	2.3	2.3
O=C(CC1CC1)N1CC2(C1)[C@H](c1ccccc1)[C@H](CO)N2Cc1ccc(F)cc1	-7.2	-0.1	-7.2
C[C@H]1CN([C@@H](C)CO)C(=O)c2cc(-c3ccc(C#N)cc3)cnc2O[C@H]1CN(C)Cc1cccnc1	-1.6	-3.9	2.3
Cc1ccccc1-c1cnc2c(c1)C(=O)N([C@@H](C)CO)C[C@@H](C)[C@@H](CN(C)Cc1ccccc1F)O2	3.7	0.4	3.3
COc1ccc(NC(=O)Nc2ccc3c(c2)C(=O)N([C@H](C)CO)C[C@@H](C)[C@@H](CN(C)S(=O)(=O)c2cn(C)cn2)O3)cc1	-2.1	-2.5	0.5
CCNC(=O)C[C@H]1CC[C@H]2[C@@H](COC[C@@H](O)CN2S(=O)(=O)c2ccc(Oc3ccccc3)cc2)O1	-3.8	0.2	-3.9

Assay outcomes from PubChem.
